RN4220 kill: growth inhibition of S. aureus RN4220, primary screen, OD600; 16 h; 330,000 tested, 0.33% active; inhibition, % (test concentration not listed);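 active = z-score of -3 or lower and OD600 up to 0.18 on both plates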;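 note: plate controls were untreated cells for no effect and reference antibiotic for full effect; stock transfer was 100 nL into about 80 µL; one replicate is shown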
Mtb hypoxia rep: PubChem AID 1159583. 300,000 tested, 0.1% active. M. tuberculosis hypoxia-regulated fluorescent reporter, fluorescence. fluorescence inhibition, % (no concentration beside the values);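 active = 35 to 45% if threefold the growth effect, above 45% if 1.5-fold the growth effect; inactive = the rest, general growth blockers included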;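 note: wells of about 50 µL received 100 nL stock; 0% = vehicle wells and 100% = reference inhibitor wells; whole bacteria with a GFP reporter of the hypoxia response; strong numbers were not always called active; many hits fall short of the cut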
ugtP null kill: growth inhibition of ugtP-null S. aureus, primary screen, RN4220 ugtP deletion, OD600; 16 h; some inactives read as strong as hits; AID 1259309, 2017; growth inhibition, % (no concentration beside the values); 330,000 tested, 0.54% active;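 active = z-score under -3 and OD600 up to 0.15 on both plates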;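 note: plate controls were untreated wells for no effect and antibiotic for full effect; wells of about 80 µL received 100 nL stock; the first replicate is given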
Bead autofluor: compound fluorescence in toxin protease inhibitor counterscreen; AID 624483; 360,000 tested, 3.1% active; fluorescence intensity (concentration not given with the values); compound autofluorescence counterscreen, microsphere flow cytometry; stronger effect = higher value;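 active = at least 3 SD above the mean of all compounds, about 16000 in these data; inconclusive = too few beads counted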;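 note: 100 nL of 1 mM stock went into each well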
BJeLR lethal: MLPCN primary cell-based screen for lethality selective to Ras in HRASV12 cells | BJeLR (HRASV12) viability, CellTiter-Glo ATP luminescence, 48 h; reference of the scale not given here | 300,000 tested, 0.17% active | AID 1554, 2009 | inhibition, % (no concentration beside the values);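 active = replicate mean above 50%; inconclusive = above 50% but judged a plate artefact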;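 note: 50 nL library stock added to about 25 µL; numbers are from one replicate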
PrP 5UTR inh: inhibition of PrP 5' UTR reporter expression; inhibition, % (no concentration beside the values); 340,000 tested, 0.35% active; cell-based PrP 5' UTR mRNA reporter, plate reader;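 active = every replicate at 50% or more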;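 note: 0 = median of the neutral control wells; tested in H4 reporter cells; numbers are from one replicate; inactives centre near -14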
Mtb hypoxia rep growth: recorded beside Mtb hypoxia rep, whose call it bears; growth inhibition, %; measured here: M. tuberculosis growth (absorbance);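 0% = vehicle and 100% = reference antibiotic; read after six days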
Numbers without * were called inactive; ? = inconclusive; . = no result given; & = joins results of further samples. Rows are unselected; 4% or so of the library scored in one or more.

SMILES | RN4220 kill | Mtb hypoxia rep | Mtb hypoxia rep growth | ugtP null kill | Bead autofluor | BJeLR lethal | PrP 5UTR inh
O=C(Nc1ccc(F)cc1)c1ccc2c(=O)n(CC3CCCO3)c(=S)[nH]c2c1 (configuration not stated) | -1.4 | -13 | 6 | -1 | 6159 | -1 | -2
CN(C)c1ccc(Nc2cc(Cl)ncn2)cc1 | 2.2 | 20 | 5 | 3 | 4478 | 7 | -39
NCCCC[C@@H](C(=O)NCCCCCCCCCCC(=O)N1CCNCC1)n1cc(CCCC(=O)O)nn1 | . | . | . | . | 4186 | -2 | -28
COc1ccc(S(N)(=O)=O)cc1C(=O)NCCCN1CCN(c2ccc(C)cc2)CC1 | 10 | 10 | 6 | 0 | 3198 | -6 | -5
COc1ccc2cc(CCNC(=O)c3cc4ccccc4o3)c(=O)[nH]c2c1 | 0.1 | 11 | 11 | -5 | 5586 | 1 | -5
Cc1cn2c(=O)c(C(=O)N3CCN(c4ccccc4)CC3)cnc2s1 | -0.4 | 2 | 0 | 1 | ? | 0 | 4
CN(C(=O)c1ccc(NC(=O)Cc2ccccc2)cc1)c1ccccc1 | -0.3 | 4 | 4 | 1 | 6140 | -4 | -14
CC(C)(O)C#Cc1ccc([C@@H]2C[C@H]3CN(c4ccccc4)C(=O)[C@]34CCCN24)s1 | 3.2 | 12 | 5 | 6 | 2641 | -2 | 10
O=C(O)C[C@H]1c2ccc(C(F)(F)F)cc2S(=O)(=O)N1C1CCCCC1 | . | . | . | . | 4623 | 16 | -11
O=C(C1=CC(c2coc3ccccc3c2=O)CC(OCc2ccc(CO)cc2)O1)N1CCN(Cc2ccccc2)CC1 (configuration not stated) | 7.6&-0.4 | 4&4 | -2&2 | 2&-17 | . | . | .
CC(C)n1nnnc1SCC(=O)Nc1ccccc1F | -0.8 | 6 | 0 | 8 | 3619 | 1 | -25
O=C(Nc1cc2c(cc1[N+](=O)[O-])OCCO2)c1cccnc1 | 4.4 | -4 | 11 | 2 | 2894 | . | .
CCOC(=O)c1ccccc1NC(=O)COC(=O)C(Cc1c[nH]c2ccccc12)NC(C)=O (configuration not stated) | 3.6 | 6 | 13 | -5 | 5213 | . | -19
CCCCCC(=O)Nc1cccc(C2=NOC3(C2)C[C@H](C(N)=O)N(C(=O)[C@H]2CCC(=O)N2)C3)c1 (some centres not stated) | . | . | . | . | 4252 | 1 | -17
NNc1nc2c(F)cc(F)cc2s1 | . | . | . | . | 9320 | -3 | -12
O=C(Cn1cnc2c(nnn2Cc2ccc(F)cc2)c1=O)Nc1ccccc1 | 7.7 | 11 | -1 | -4 | 5282 | -7 | -6
Fc1ccc2[nH]c3c(NCc4ccccc4)ncnc3c2c1 | -2.5 | 7 | 0 | -23 | 2953 | -4 | -12
COc1cccc(CNC(=O)CCC2CCCN(C(=O)c3ccccc3N(C)C)C2)c1 (configuration not stated) | 0.3 | 5 | 0 | 1 | 4654 | -1 | -5
COc1cc(C(=O)NNC(=O)c2ccccc2OCc2c(C)noc2C)cc(OC)c1OC | -0.3 | 6 | -5 | 2 | 6531 | . | -16
O=S1(=O)[C@H]2C[C@@H]3CC[C@]2(CN1Cc1cccc(F)c1)O3 | . | . | . | . | 4540 | 0 | -25
Cc1nn(C)c(C)c1CN(C)C(=O)c1cc2n(n1)C(C(F)(F)F)CC(c1cccs1)N2 (configuration not stated) | 2.9 | -2 | 6 | -5 | 3289 | 4 | -10
Cc1ccc(NC(=O)COC(=O)c2ccccc2-c2nc3ccccc3s2)c(C)c1 | 14 | 10 | 7 | 18 | 2563 | -1 | -24
COc1ccccc1N1CCN(S(=O)(=O)c2ccc3c(c2)oc(=O)n3C)CC1 | 3.4 | 7 | 2 | 2 | 3732 | 2 | -16
COc1ccc(OC)c(N(CC(=O)N2CCC(C)CC2)S(=O)(=O)c2ccc(OC)c(OC)c2)c1 | 4.4 | 6 | 0 | 1 | ? | 2 | -14
Cc1cccc2nc(-c3ccccc3)nc(N[C@@H](CO)c3ccccc3)c12 | . | . | . | . | 9002 | -3 | -34

Next part.
SMILES | RN4220 kill | Mtb hypoxia rep | Mtb hypoxia rep growth | ugtP null kill | Bead autofluor | BJeLR lethal | PrP 5UTR inh
CN1CCN(C(=O)C2=C[C@H](c3ccc(C(F)(F)F)cc3)C[C@H](OCc3ccc(CO)cc3)O2)CC1 | . | . | . | . | 3768 | -5 | -9
O=C(NNC(=O)c1sc2cccc(Cl)c2c1Cl)NC1CCCCC1 | 3.3 | . | . | -10 | 3089 | 1 | -22
O=C1Nc2ccccc2Sc2ccccc21 | 7.4 | -3 | 11 | 0 | 5175 | 6 | -25
Cc1ccc(NC(=O)c2ccc3c(c2)OCCO3)cc1S(=O)(=O)Nc1cccc(Cl)c1 | 14 | 4 | 14 | 6 | 10422 | -15 | -37
CC(C)c1ccc(OCC(=O)Nc2cccc(C(=O)Nc3ccccc3C(=O)O)c2)cc1 | 15 | -5 | -5 | -1 | 9306 | 0 | -38
CCOC(=O)c1c(C)n(C)c2ccc(OCC(O)CNC(CC)CO)cc12 (configuration not stated) | 2.4 | . | . | -1 | 2645 | 11 | -20
Cn1c(=O)c2c(nc(NC(Cc3ccccc3)C(=O)O)n2Cc2ccccc2)n(C)c1=O (configuration not stated) | -7.2 | . | . | -4 | 4786 | 1 | 2
Cc1ccc(SCC(=O)NC(=O)c2ccccc2Br)c(C)c1 | 6.3 | 7 | 13 | -4 | 3458 | . | -15
CC(C)(C)C(=O)NCCCc1ccccc1 | 4.4 | . | . | 4 | 2307 | 4 | -14
COc1cc(-c2nnc(SCC(=O)N3CCCC3)o2)cc(OC)c1OC | 5.8 | . | . | 0 | 4911 | 0 | -2
COc1ccc2[nH]c3c(=O)n(N)c(C)nc3c2c1 | 2.4 | 10 | -1 | 1 | 2374 | 11 | -23
CCOC(=O)c1sc(NC(=O)C(C)(C)C)cc1C | 6.2 | -1 | 1 | -3 | 5392 | -2 | -67
CSc1nnc(-c2ccc(S(=O)(=O)N3CCOCC3)cc2)n1CC1CCCO1 (configuration not stated) | 5.7 | 5 | 2 | 6 | 17507* | 15 | -18
CN(C)C(/C=C/Nc1cccc(Br)c1)=C(C#N)C#N | 5.7 | -2 | -7 | 9 | 4319 | 8 | 2
Cc1ccc(-c2cc3nc4c(c(=O)n3[nH]2)CCCC4)cc1 | 1.1 | . | . | -5 | 2168 | -7 | -13
Cn1c(SCC(=O)N2CCCC2=O)nc2ccccc21 | -1.2 | 3 | 4 | 4 | 4523 | -1 | -17
CCNc1ccc(C(=O)OCC(=O)NC(C)c2ccccc2)cc1[N+](=O)[O-] (configuration not stated) | 1.7 | 10 | 6 | 2 | 2071 | 4 | -15
COc1c2c(c(C)c3c1C(=O)OC3)O[C@@]1(C)CC[C@@]3(O)C(C)(C)OC(=O)CC[C@]3(C)[C@H]1C2 | 4.8 | . | . | -9 | 3923 | -2 | -10
CSc1nnc(-c2ccco2)c(-c2ccco2)n1 | 6.1 | 14 | 7 | 2 | 3971 | -7 | -9
CCOC(=O)/C=c1\s/c(=C\c2ccc(C#N)cc2)c(=O)n1CC(=O)NCc1ccco1 | . | . | . | . | 2568 | -2 | -23
O=C1NC(=O)C(CCc2ccncc2)(CCc2ccncc2)C(=O)N1Cc1ccccc1 | 6.9 | 3 | 6 | 9 | 3357 | -14 | -18
Cc1ccccc1N(Cc1nnc2n1CCCCC2)C(=O)Nc1ccccc1 | -1.3 | . | . | -4 | 4680 | -6 | -7
O=C(Nc1ccccc1F)c1ccc2ncsc2c1 | 2.4 | -6 | 2 | -6 | 3555 | 1 | -83
O=C(CC(c1ccccc1)c1ccccc1O)NCc1ccccc1Cl (configuration not stated) | -1.4 | -6 | 5 | 0 | 2466 | -19 | -3
COc1ccc(N=Nc2c(N)n[nH]c2N)cc1 | 3.4 | 17 | 1 | 3 | 4557 | -3 | -29

More results.
SMILES | RN4220 kill | Mtb hypoxia rep | Mtb hypoxia rep growth | ugtP null kill | Bead autofluor | BJeLR lethal | PrP 5UTR inh
C=CCOC(=O)c1cc(-c2ccc(/C=C3\C(=O)NC(=O)C(C#N)=C3C)o2)ccc1Cl | 12 | 9 | 5 | 13 | 5030 | . | -39
CCOC(=O)/C=C/C(=O)OCC(=O)Nc1c(Cl)cccc1Cl | 0.8 | 2 | -3 | 4 | 4373 | 4 | -25
CCOc1ccccc1Nc1cc(C)nc2ccc(C)cc12 | -0.5 | 8 | 0 | -2 | 3995 | 10 | -9
CC(C(=O)Nc1cccnc1)c1ccc([N+](=O)[O-])cc1 (configuration not stated) | 2.3 | -3 | 13 | 7 | 1926 | 3 | 4
COc1ccc2c(c1OC)C(=O)N1c3ccccc3C(=O)N(c3ccccc3)C21 (configuration not stated) | . | . | . | . | 3104 | 31 | -14
Cn1c(=O)c2[nH]c(C3CCCC3)nc2n(C)c1=O | 3.0 | 3 | 10 | -4 | 6621 | 1 | -20
CC1(C)CC(=O)c2c(S(C)(=O)=O)sc(Br)c2C1 | 2.8 | -8 | -5 | 4 | 5627 | -10 | -17
O=C1C=C(c2cnc3ccccc3c2)C[C@@H](c2ccc3c(c2)OCO3)C1 | 0.0 | -11 | -4 | -13 | 3751 | . | -2
CC1(C)CC(=O)c2sc(NS(=O)(=O)c3ccc(Cl)cc3)nc2C1 | 0.8 | 2 | -5 | 8 | 2884 | -6 | -30
CC#CC(=O)N1CCC(CO)(CCc2ccccc2)CC1 | 0.8 | -7 | -13 | -7 | 5169 | -3 | -112
CC1(C)Cc2c(c(N3CCOCC3)nc3sc(C#N)c(N)c23)CS1 | 8.1 | . | . | -6 | 4949 | -5 | -1
COCCN(C(=O)CC1C(=O)NCCN1CC(c1ccccc1)c1ccccc1)C(C)C (configuration not stated) | 4.9 | 2 | 5 | -1 | 2099 | 14 | -13
CSCCOC(=O)COc1ccc(/C=N/NC(=O)c2c(Cl)cnn2C)cc1 | . | . | . | . | 3903 | 0 | -22
COc1ccc(NC(=O)N2CCNC(=O)C2CC(=O)Nc2ccc(F)cc2)cc1 (configuration not stated) | 2.4 | -2 | -6 | 9 | 4332 | -2 | -10
O=C(CSc1nnc(NC(=O)C2CCC2)s1)Nc1ccccc1F | 2.6 | 0 | 1 | 5 | 3743 | -1 | -11
Cc1oc2c(CN3CCCCC3)c(O)ccc2c(=O)c1-c1ccc(Br)cc1 | 3.4 | 0 | 2 | 4 | 3583 | 1 | -51
O=C(Nc1ccc2c(c1)C(=O)N(c1ccccc1)C2=O)C1CCCO1 (configuration not stated) | -1.1 | 3 | 12 | -8 | 21610* | 8 | -27

Screening data: PubChem BioAssay, several laboratories
